Rango release inh: qHTS Assay for Inhibitors of RanGTP induced Rango (Ran-regulated importin-beta cargo) - Importin beta complex dissociation | 340,000 tested, 0.071% active | Potency, µM (series often up to 46.1 µM), inactives show top-dose activity change, negative = inhibition | Biochemical FRET Rango-importin beta, RanGTP-induced dissociation; active means falling FRET ratio curve, often poorly fitted, with flat reads before Ran was added; inconclusive means other falling curves, or compound fluorescence or quenching; inactive means flat or rising ratio curve;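 further: potency means the concentration at half of the fitted maximal effect; % of control where 0% means no effect; nearly all actives have a fitted effect of over 45% in size; -100% = wells without RanGTP and RCC1; the record marks most hits as doubtful in a second field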
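Rango FRET biosensor (snurportin-1 IBB flanked by N-terminal EYFP and C-terminal CFP10) at 0.1 uM, with 0.25 uM importin beta in PBS, 1mM DTT, 0.02% Tween-20, 0.1% BSA. 0.6 uM Ran, 2mM GTP and 0.2 uM RCC1 were then added for 45 min at room temperature. Inhibition read as loss of FRET rise.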
GLA inh pH 4.5: qHTS Assay for Inhibitors of Human alpha-Galactosidase at pH 4.5 | Alpha-galactosidase A (Homo sapiens), P06280 | purified enzyme, 4-MU-alpha-Gal fluorescence, pH 4.5 | activity change, negative = inhibition, % at 105 µM | 230,000 tested, under 10 active; inconclusive = small, poorly fitted or top-dose-only inhibition, or a rising curve; inactive = flat fitted curve, though single readings scatter; no compound was filed as active;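 further: 0% = full activity with enzyme and -100% = basal without enzyme; dose as in the result columns while the protocol names 77 µM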
Target sequence (P06280 whole entry, looked up): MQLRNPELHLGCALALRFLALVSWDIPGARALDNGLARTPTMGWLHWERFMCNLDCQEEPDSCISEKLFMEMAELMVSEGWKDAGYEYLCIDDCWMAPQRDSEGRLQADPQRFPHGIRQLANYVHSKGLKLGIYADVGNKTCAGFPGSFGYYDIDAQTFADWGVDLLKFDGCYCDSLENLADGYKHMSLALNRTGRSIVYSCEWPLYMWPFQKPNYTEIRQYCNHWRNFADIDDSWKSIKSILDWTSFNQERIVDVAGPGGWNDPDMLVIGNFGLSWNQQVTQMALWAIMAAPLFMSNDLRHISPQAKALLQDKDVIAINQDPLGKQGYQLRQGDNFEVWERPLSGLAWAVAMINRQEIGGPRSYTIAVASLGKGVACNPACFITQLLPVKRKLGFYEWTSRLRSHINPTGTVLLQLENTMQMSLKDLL
Rango-impB inh: qHTS Assay for Inhibitors of Rango (Ran-regulated importin-beta cargo) - Importin beta complex formation | 340,000 tested, 0.031% active | Rango CFP/YFP FRET sensor + importin beta, 45 min | Potency, µM (titrated, usually from 92.2 µM), without a hit: at the highest dose inhibition of complex formation | Importin subunit beta-1 (Homo sapiens), Q14974; active = rising FRET ratio curve, often small or poorly fitted; inconclusive = mostly compound fluorescence or quenching in the first reads; inactive = flat curves in all reads;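 further: potency means the concentration at half of the fitted maximal effect; 0% = DMSO wells and 100% = buffer wells lacking importin beta; nearly all actives have a fitted effect of over 15% in size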
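FRET biosensor Rango (snurportin 1 IBB between N-terminal EYFP and C-terminal Cerulean), 50 nM in PBS/1 mM DTT/0.02% Tween-20/0.1% BSA, preincubated 5 min RT with compound; 0.125 microM importin beta added, 45 min RT, CFP/YFP FRET ratio read.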
miR-21 FLuc: qHTS Assay for Modulators of miRNAs and/orActivators of miR-21; HeLa miR-21 FLuc reporter, luciferase, 48 h; Potency, µM (titrated, usually from 38.3 µM), without a hit: at the highest dose reporter change, positive = more light; 340,000 tested, under 10 active; active = well fitted rising curve with a large enough effect; inconclusive = small, poorly fitted or top-dose-only effect; inactive = no such curve, though single readings can be large or run the other way;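 further: % of control where 0% means no effect; miR-21 action dims this reporter so a rising signal means less miR-21 action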
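Compounds were titrated across several concentrations (up to approximately 40 uM) and incubated 48 hours with HeLa miR-21-FLuc reporter cells (miR-21 target sequence downstream of FLuc, endogenous miR-21). Readout was firefly luciferase luminescence after lytic detection reagent.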
Starred values were filed as active, the others as inactive; ? = inconclusive; . = no result given; & = joins results of further samples. The list is partial; the hit share may differ from the screen's.

Rango release inh | GLA inh pH 4.5 | Rango-impB inh | miR-21 FLuc | canonical_smiles
0% | . | -0.4% | . | CN1CCN(C(=O)c2cnn(-c3ccccc3)c2NC(=O)c2ccc(Br)cc2)CC1
5% | -5 | -0.5% | -10% | CNC(=O)c1sc(SC)cc1-c1ccc(Cl)cc1
5% | -12 | ? | -11% | CC(c1ccco1)N(C(=O)c1ccc(S(=O)(=O)N2CCCCC2)cc1)c1ccccn1 (centres undefined)
9% | . | -2.2% | . | O=C(Nc1cccc(S(=O)(=O)N2CCCCCC2)c1)c1cncc(Br)c1
4% | . | -3.4% | . | COCCCN(C(=O)c1cc2c(s1)CCCCC2)c1c(N)n(Cc2ccccc2)c(=O)[nH]c1=O
-2% | -5 | -0.8% | -4% | O=C(CCC(=O)Nc1ccc(Br)cc1)N/N=C/c1cc([N+](=O)[O-])ccc1O
-1% | -3 | 2.7% | -23% | CN(CC(=O)NNC(=O)c1cccnc1)S(=O)(=O)c1cc(Cl)ccc1Cl
-4% | 0 | 0.0% | 7% | COc1ccc2c(c1)c(C(C)=O)c(C)n2-c1ccccc1
2% | -12 | 3.4% | -5% | CCC1CCCN1Cn1cnc2c([nH]c3ccccc32)c1=O (centres undefined)
-7% | 1 | -3.7% | 6% | Cc1ccc(C2(C(F)(F)F)NC(=O)N3CCCN=C3S2)cc1 (centres undefined)
-1% | 3 | 0.9% | -3% | CCCCn1c(-c2nn(C)c(C)c2Cl)n[nH]c1=S
5% | 2 | -0.7% | -1% | COc1ccc(/C(N)=N/OC(=O)Cc2ccc(OC)c(OC)c2)cc1
11% | 2 | -0.3% | -5% | O=C(Cn1cnc2ccccc21)N/N=C/c1ccco1
1% | -3 | -3.9% | -5% | Nc1nonc1-c1nc2ccccc2n1CC(=O)N1CCN(c2ccc(F)cc2)CC1
4% | 1 | 0.6% | -69% | CCCCN(C(=O)Cc1cccs1)c1nnc(-c2cccnc2)s1
2% | -20 | -3.8% | -14% | Cc1ccccc1NC(=O)C1C2CC/C=C\CCC21 (centres undefined)
-5% | . | 1.1% | -1% | CC1CCCCC1NC(=O)C1CCC(CNS(=O)(=O)c2cccc3cccnc23)CC1 (centres undefined)
9% | . | 0.3% | -21% | O=C1NC(=O)/C(=C/c2ccccc2Cl)N1
2% | . | -1.8% | 18% | O=C(c1cccc(N2CCCC2=O)c1)N1CCN(c2cccc(Cl)c2)CC1
2% | -1 | 0.3% | 8% | Cc1csc2c(=O)n(CCO)c(=O)[nH]c12
1% | . | -0.4% | . | Cc1nn(-c2ccccc2)c(C)c1NC(=O)COC(=O)c1cc(Cl)ccc1O
-2% | . | -5.1% | -1% | O=C(NCCS(=O)(=O)N1CCN(c2ccccc2F)CC1)c1ccc(Br)cc1
1% | . | 5.4% | 0% | O=C(COC(=O)c1ccc2c(c1)C(=O)N(Cc1ccco1)C2=O)NCC(F)(F)F
12% | . | -2.4% | . | CC1(C)Cc2c(sc3ncn4nc(-c5ccco5)nc4c23)CO1
1% | 8 | 0.2% | -3% | CC(C)(C)NC(=O)NC12CC3CC(CC(C3)C1)C2
-1% | . | ? | 0% | CCCCCc1c(C)[nH]c2nc3ccccc3n2c1=O
13% | . | 0.4% | 1% | COCCN(C(=O)c1snc(C(N)=O)c1N)C(C(=O)NC1CCCCC1)c1ccc(F)cc1 (centres undefined)
1% | . | 0.8% | 0% | O=C1CCCN1CCCNS(=O)(=O)c1ccccc1
3% | 1 | 0.9% | 1% | COc1ccc2c(c1)c(N=O)c(O)n2C
3% | . | 2.5% | 5% | CCC(OC(=O)CN1C(=O)c2ccccc2C1=O)C(=O)NC1CCCC1 (centres undefined)
-8% | . | -4.3% | 1% | CC(NC(=O)/C(=C\c1ccco1)NC(=O)c1ccco1)C(=O)O (centres undefined)
-5% | -7 | 3.4% | -25% | COc1cc(CNCCN2CCOCC2)ccc1OCc1ccccc1Cl
-7% | -8 | -1.3% | 16% | O=C(COC(=O)CCCOc1ccc(Cl)cc1Cl)NCc1ccccc1
-6% | . | -3.1% | -7% | COc1ccc(CN2CC(C(=O)NCCc3ccc(Cl)cc3)CC2=O)cc1 (centres undefined)
-5% | . | -3.4% | . | Cc1cc(C(=O)COC(=O)c2ccc(O)cc2O)c(C)n1-c1ccccc1
0% | -3 | 6.6% | -2% | Cc1cc(C)c[n+](CC(=O)c2cc3ccccc3oc2=O)c1
1% | . | -0.8% | . | CC1(CCc2ccccc2)NC(=O)N(CC(=O)Nc2ccc(OC(F)F)cc2)C1=O (centres undefined)
-4% | 8 | -0.5% | -7% | Cn1nc(C(=O)Nc2cccc(C(F)(F)F)c2)ccc1=O
4% | -2 | 1.4% | -11% | CC(=O)c1cc(F)c(N2CCN(CCC#N)CC2)cc1C
2% | -1 | -0.7% | -2% | CCOc1ccc(N2CC(C(=O)NCCN3C(=O)S/C(=C\c4ccc(OC)c(OC)c4)C3=O)CC2=O)cc1 (centres undefined)
2% | 4 | -2.9% | -39% | O=C(/C=C/c1ccc2c(c1)OCO2)NCC1CCCO1 (centres undefined)
1% | . | -2.8% | -1% | CN1C(=O)Cc2cc(S(=O)(=O)NCc3c(F)cccc3Cl)ccc21
-4% | 4 | 0.3% | -2% | Nc1c(Cl)nc(-c2ccccc2)nc1Cl
5% | . | -0.4% | -8% | Cc1ccccc1OC(C)C(=O)NCCC1=CCCCC1 (centres undefined)
-5% | -7 | -1.5% | -2% | Cn1ncc2c(=O)n(/N=C/c3ccccc3)cnc21
. | ? | . | 0% | Cc1ccccc1C(=O)N=c1c(C#N)cc2c(=O)n3cccc(C)c3nc2n1Cc1ccco1
-6% | 2 | -0.6% | 14% | CCc1cc(=O)n2[nH]c(C)c(-c3ccccc3OC)c2n1
12% | 0 | -0.5% | -4% | CCOC(=O)C1(CCCc2ccccc2)CCN(C(=O)CCn2cnnn2)CC1
-5% | 8 | -6.8% | -13% | CC1Nc2ccccc2C(=O)N1NC(=O)c1ccc(Br)cc1 (centres undefined)
? | -3 | ? | 20% | Cc1ccc(N2C(=O)c3cccc4c(N5CCN(C)CC5)ccc(c34)C2=O)c2cccnc12
13% | -4 | -5.4% | 1% | O=C1NC(=O)C2C1C(c1ccccc1)N1C3C(=O)NC(=O)C3C(c3ccccc3)N21 (centres undefined)
-7% | -28 | -0.3% | -49% | CC(=O)CSc1ncnc2sc3c(c12)CCC(C)C3 (centres undefined)
-12% | 4 | ? | -4% | CCCOC(=O)NC(CC)COC(=O)Nc1cccc(C)c1C (centres undefined)
-5% | 6 | 1.5% | -11% | CC(C)c1nnc(NC(=O)c2ccc(S(=O)(=O)N3CCOCC3)cc2)s1
8% | 2 | 1.3% | -8% | CC1(C)CC(=O)C(C=Nc2cccnc2)=C(O)C1
-1% | -1 | -5.7% | 12% | CCOC(=O)Cc1csc(N/N=C/c2ccc(C(F)(F)F)cc2)n1
-4% | 7 | 3.9% | -2% | COc1ccccc1/C=N/OCC(=O)NCc1ccc2c(c1)OCO2
1% | -22 | -0.4% | -2% | CCOC(=O)C1CCCN(C(=O)C(C)(C)Oc2ccc(Cl)cc2)C1 (centres undefined)
1% | . | -0.3% | . | COc1cc(OCc2ccccc2)c2c(CCC(=O)O)cc(=O)oc2c1
-7% | 1 | -3.8% | -2% | CC(NC(=O)NNC(=O)c1ccncc1)(C(F)(F)F)C(F)(F)F

An excerpt from above, reduced to Rango-impB inh.
structure | Rango-impB inh
CC(C)c1nnc(NC(=O)c2ccc(S(=O)(=O)N3CCOCC3)cc2)s1 | 1.5%
CC1(C)CC(=O)C(C=Nc2cccnc2)=C(O)C1 | 1.3%
CCOC(=O)Cc1csc(N/N=C/c2ccc(C(F)(F)F)cc2)n1 | -5.7%
COc1ccccc1/C=N/OCC(=O)NCc1ccc2c(c1)OCO2 | 3.9%
CCOC(=O)C1CCCN(C(=O)C(C)(C)Oc2ccc(Cl)cc2)C1 (centres undefined) | -0.4%

Continuation:
Rango release inh | GLA inh pH 4.5 | Rango-impB inh | miR-21 FLuc | canonical_smiles
2% | -1 | -0.5% | -1% | Cc1ccc(CNC(=O)C(=O)NCC2OCCN2C(=O)c2ccc(Cl)cc2)cc1 (centres undefined)
-14% | . | -0.8% | 1% | Cc1cc2oc(C(=O)Nc3ccc(S(=O)(=O)Nc4ncccn4)cc3)cc(=O)c2cc1Cl
? | 0 | ? | -2% | O=C(c1ccccc1)c1sc(N2CCCCCC2)nc1-c1ccccc1
0% | -9 | -4.8% | -7% | CC(=O)c1cccc(NC(=O)C=C(C)C)c1
-4% | . | -0.8% | . | O=C(CSc1nc2ccccc2c(=O)n1-c1ccccc1Cl)NCC1CCCO1 (centres undefined)
-4% | 0 | 0.5% | -6% | Cc1nnc(C)n1/N=C/c1ccccc1
0% | . | -1.9% | 10% | CCOC(=O)N1CCN(c2nc(-c3cccs3)nc3ccccc23)CC1
8% | . | 2.2% | 3% | Cc1ccccc1NC(=O)CN1C(=O)c2ccccc2C1=O
1% | -4 | -0.5% | 21% | N#C/C(=N\Nc1ccc(Cl)cc1)C(N)=S
-4% | -4 | 5.4% | 0% | Cc1ccc(/C=N/NC(=O)CN2CCN(Cc3ccccc3)CC2)s1
-6% | . | 0.1% | 2% | COc1cccc2cc(-c3cc(=O)oc4cc(C)c(OCC(C)=O)cc34)oc12
2% | . | -2.1% | . | CC(O)(Cc1cccnc1)c1cccs1 (centres undefined)
1% | . | -3.0% | . | O=C(NCCC1=CCCCC1)C1CCN(S(=O)(=O)c2cccc(C(F)(F)F)c2)CC1
9% | -1 | ? | -1% | O=C(CC(=O)N/N=C\c1c(Cl)cccc1Cl)NCc1ccccc1
4% | . | 0.0% | -11% | O=C(Nc1cccc(Cl)c1)c1ccc(=O)[nH]n1
3% | . | 2.6% | -8%&4% | CCN(CC)S(=O)(=O)c1ccc2c(c1)c(=O)c(C(=O)NCCc1ccc(OC)c(OC)c1)cn2C
-1% | -9 | 2.5% | 4% | CC(C)(C)C1=CC(=O)C(=O)C(C(C)(C)C)=C1
4% | -2 | 0.1% | -1% | CC(c1ccccc1)N1C(=O)c2ccccc2C1(O)Cc1ccccc1 (centres undefined)
-8% | 14 | -2.6% | -1% | Cc1[nH]nc2c1C(c1cccc(OC(=O)N3CCOCC3)c1)C(C#N)=C(N)O2 (centres undefined)
-6% | . | -0.4% | . | CCOC(=O)[C@@H](C)N(Cc1ccc(OC)cc1)S(=O)(=O)N(Cc1ccccc1)[C@H](C(=O)OC)C(C)C
-12% | -19 | -0.3% | -3% | O=c1[nH][nH]c(-c2ccccc2O)c1C(C[N+](=O)[O-])c1ccc(Cl)cc1Cl (centres undefined)
-7% | . | -1.4% | . | CN(NC(=O)Nc1ccc(Cl)cc1)c1ncc(C(F)(F)F)cc1Cl
-6% | 2 | 4.1% | 0% | COCCCNC(=O)C1CCC(CNS(=O)(=O)c2ccc(Cl)cc2)CC1 (centres undefined)
26% | -9 | -1.1% | 11% | COc1ccc(OC)c(NC(=O)CSc2nnc(C3CCCCC3)n2-c2ccccc2)c1

Profiles, looked up by structure.
COc1ccc(/C(N)=N/OC(=O)Cc2ccc(OC)c(OC)c2)cc1 as listed: Rango release inh = 5%; GLA inh pH 4.5 = 2; Rango-impB inh = -0.7%; miR-21 FLuc = -1%
Cc1cc(C(=O)COC(=O)c2ccc(O)cc2O)c(C)n1-c1ccccc1 as listed: Rango release inh = -5%; GLA inh pH 4.5 = .; Rango-impB inh = -3.4%; miR-21 FLuc = .
O=C(c1ccccc1)c1sc(N2CCCCCC2)nc1-c1ccccc1 as listed: Rango release inh = ?; GLA inh pH 4.5 = 0; Rango-impB inh = ?; miR-21 FLuc = -2%

Screening data (PubChem)
